# VACV Venus inh: qHTS for Stage-Specific Inhibitors of Vaccinia Orthopoxvirus: Venus Reporter Primary qHTS. Vaccinia virus Venus reporter expression, fluorescence. Potency, µM (titrated, usually from 36.5 µM), without a hit: top-dose activity change, negative = inhibition, usual class: inhibitors. 0.46% of 330,000 active; active means well fitted inhibition curve with a large enough effect; inconclusive means small, poorly fitted or top-dose-only effect; inactive means no such curve, though single readings can be large or run the other way; tested in A549 cells; also: nearly all actives have a fitted effect of over 30% in size; inactives centre near -10
# Vaccinia mCherry: qHTS for Stage-Specific Inhibitors of Vaccinia Orthopoxvirus: mCherry Reporter Primary qHTS. Vaccinia virus mCherry reporter infection, fluorescence; about a quarter of the inactives have no number. 0.63% of 310,000 active. Potency, µM (series often up to 36.5 µM), for the others: at the highest dose activity change, negative = inhibition, most hits filed as inhibitors; active = well fitted inhibition curve with a large enough effect; inconclusive = small, poorly fitted or top-dose-only effect; inactive = no such curve, though single readings can be large or run the other way; tested in A549 cells; also: nearly all actives have a fitted effect of over 35% in size; inactives centre near -10
# * hit, by the source's call; i = inactive; u = inconclusive; x = no result given; & = joins results of further samples. % is scaled to controls: 0 for no effect and ±100 for the full control effect; potency is read from the fitted curve at half-maximal effect.
SMILES,VACV Venus inh,Vaccinia mCherry
Cc1nn(Cc2ccc(C(=O)N3c4ccc(F)cc4CCC3C)o2)c(C)c1Br (centres undefined),u,x
O=C1N=c2ccccc2=C1c1c(O)n(-c2cccc(F)c2)[nH]c1=O,-10%,-21%
Cc1c(Cl)cccc1NC(=O)CSCC(N)=O,-3%,-14%
CC(=O)N1CCN(C(=O)CCc2nc3sc4c(c3c(=O)[nH]2)CCCC4)CC1,-6%,-15%
COC(=O)c1c(C)[nH]c(C(=O)OCc2csc(CC(=O)Nc3ccccc3C)n2)c1C,-18%,-11%
CC(C)Cn1c(SCC(=O)NCCCN2CCCC2=O)nc2ccccc21,-17%,-14%
O=C1N(CC(=O)N2CCc3ccccc32)CCN1Cc1ccc(Cl)cc1,u,x
CC(=O)c1cccc(NC(=O)c2cc(Cl)sc2Cl)c1,-7%,-14%
Cc1ccnc(NC(=O)CCC(=O)N(CC(=O)NCc2ccc(F)cc2)CC2CCCO2)c1 (centres undefined),-7%,-14%
CN(Cc1ccccc1)C(=O)[C@@H]1CCCN1C(=O)[C@@H]1CCCN1C(=O)OC(C)(C)C,-5%,-6%
C=CCC[C@@H](Cc1ccc(F)cc1)C(=O)OC[C@@H](NC(=O)[C@@H](CC=C)CC(=O)N(CCO)Cc1ccccc1)c1ccccc1,u,u
COc1cc(C=NNc2ccccc2[N+](=O)[O-])cc(OC)c1OC,-5%,i
CNC(=O)CCSSCCC(=O)NC,-7%,i
C[C@H](CO)N1C[C@H](C)[C@@H](CN(C)S(=O)(=O)c2ccc(F)cc2)Oc2ccc(NC(=O)Nc3ccc4c(c3)OCO4)cc2C1=O,-18%,i
Cc1c(C(=O)c2ccc(F)cc2F)c2ccccn2c1CCC#N,-14%,i
N#CCCn1c(SCC(=O)Nc2ccc(N3CCOCC3)cc2)nc2ccccc21,0%,-8%
C/C(=N\OC(=O)c1c(-c2c(F)cccc2Cl)noc1C)c1nccs1,-5%,-3%
Cc1ccc(-c2cc(C(=O)NC(C)c3ccccc3)c3ccccc3n2)cc1C (centres undefined),-15%,-15%
COc1ccc(/C=N/NC(=O)CNC(=O)c2cccs2)cc1,-6%,-11%
COc1ccc(N(C)C(=O)c2ccc3snnc3c2)cc1,-5%,i
CN(c1ccccc1)S(=O)(=O)c1cccc(C(=O)Nc2ccc3c(c2)CCC3)c1,-21%,-14%
O=C(O)c1cccc(S(=O)(=O)N2CCC(n3nnc4cc(C(F)(F)F)ccc43)CC2)c1,8%,4%
CSc1nnc([C@@H](N)Cc2c[nH]c3ccccc23)o1,-22%,i
CCOC(=O)C1=C(C)NC2=C(C(=O)CC(C)(C)C2)C1c1ccc(N(C)C)cc1 (centres undefined),-24%,i
NS(=O)(=O)c1ccc(CCNC(=S)Nc2ccccc2)cc1,-2%,-11%
# (more compounds)
SMILES,VACV Venus inh,Vaccinia mCherry
CC[C@@H](C)[C@H](NS(=O)(=O)c1cccc2ccccc12)C(=O)N[C@H](C=O)Cc1c[nH]c2ccccc12,-12%,-16%
Cn1c2ccccc2c(=O)c2cc(C#Cc3ccsc3)ccc21,-25%,-2%
Cc1ccc(S(=O)(=O)NC2OC(=O)C(Cl)=C2Cl)cc1 (centres undefined),-8%,u
COc1ccc(C(=O)NNC(=O)CSc2nnc(-c3ccc(O)cc3)n2C)cc1,2%,i
Cc1cc(NC(=O)CSc2ncn(-c3ccccc3)n2)no1,-12%,x
CSc1nc2n(n1)C(c1ccccn1)C1=C(CC(C)(C)CC1=O)N2 (centres undefined),-6%,-17%
Cc1ccc(NC2=C(Cl)C(=O)OC2OC(=O)c2ccco2)c(C)c1 (centres undefined),-9%,0%
CCOc1ccc(CCNC(=O)c2[nH]c(C)c(C(C)=O)c2CC)cc1OCC,-11%,i
Cc1nn(CCC#N)c2nc(-c3ccccc3)cc(C(F)(F)F)c12,-14%,-5%
Cc1ccc(CN2CC34C=CC(O3)C(C(=O)NCc3ccc5c(c3)OCO5)C4C2=O)cc1 (centres undefined),5%,-10%
O=C(NCc1ccc2c(c1)OCO2)c1cc(-c2ccc(Cl)cc2Cl)on1,-19%,-2%
CCCS(=O)(=O)c1c(S(=O)(=O)CCC)c2c(C)cccn2c1C(N)=O,-10%,-14%
CCc1ccccc1NC(=O)c1ccc(Cn2nc(N3CCN(c4ccccc4)CC3)ccc2=O)o1,-20%,-28%
Cc1cc2ccccc2cc(C)c1=O,5%,3%
CSc1ccc(-c2nc3ccc(C)cn3c2Nc2ccccc2C)cc1,-8%,-9%
O=C(CSc1nc2ccccc2c(=O)n1Cc1ccccc1)Nc1ccc(Br)cc1C(=O)O,-5%,-11%
COc1ccc(C(=O)NCC2CCCO2)cc1 (centres undefined),-14%,-16%
C=CCNc1nc2c(c(=O)[nH]c(=O)n2C)n1CC(O)COc1ccc2ccccc2c1 (centres undefined),-17%,-7%
Cc1cc(=O)oc2cc(OCC(=O)N3CCN(c4ccccc4)CC3)c(Cl)cc12,-7%,-12%
Cc1ccc(-c2[nH]c3ccccc3c2SCCNC(=O)c2cc3ccccc3oc2=O)cc1,-17%,-24%
C=CCN=c1scc(C)n1/N=C/c1ccc(O)c(O)c1,4%,0%
CCc1ccc2ncc3c(-c4ccccc4)nn(-c4ccccc4)c3c2c1,-13%,i
Cc1ccc(C2=NNC(C(O)C(O)C(O)C(C)O)S2)cc1 (centres undefined),-6%,-11%
CC1Cc2ccccc2N1c1ncnc2c1nnn2Cc1ccccc1Cl (centres undefined),-12%,-1%
CCCc1[nH]nc2c1C(c1c(C)nn(-c3ccccc3)c1Cl)C(C#N)=C(N)O2 (centres undefined),-17%,-24%

# Given with tabs: part of the list above.
smiles	VACV Venus inh	Vaccinia mCherry
CN(Cc1ccccc1)C(=O)[C@@H]1CCCN1C(=O)[C@@H]1CCCN1C(=O)OC(C)(C)C	-5%	-6%
CSc1ccc(-c2nc3ccc(C)cn3c2Nc2ccccc2C)cc1	-8%	-9%

# The results go on.
SMILES,VACV Venus inh,Vaccinia mCherry
O=C1NCC(NC(=O)C(F)(F)F)c2cc3c(cc21)OCO3 (centres undefined),-12%,0%
Cc1cccc2c1-c1sc(C(=O)NCCCN3CCN(c4ccccc4F)CC3)cc1CO2,-23%,-14%
CC(CCc1ccccc1)NC(=O)CNC(=S)N(Cc1cccs1)C1CCCC1 (centres undefined),-21%,-26%
CCc1nc2c(OCc3ccc(OC)cc3)cccn2c1N(C)C(=O)c1ccc(OC)cc1,-11%,22%
Cn1c(=O)oc2cc(S(=O)(=O)N3CCC(C(=O)NCc4ccc(F)cc4)CC3)ccc21,1%&-13%,0%&-18%
C=CCNC(=S)NNC(=O)COc1ccc(Br)cc1,-11%,-19%
O=C(COc1ccc(Cl)cc1)NC(=S)Nc1ccccc1N1CCOCC1,-21%,-5%
Cc1cc(C)c2c(=O)cc(C(=O)NCc3ccccc3)oc2c1,u,u
CC(O)C(NS(=O)(=O)c1ccc(Cl)cc1)C(=O)OCC(=O)Nc1cccnc1Cl (centres undefined),-10%,-13%
Cc1noc(C)c1NC(=O)N(C)C[C@H]1Oc2c(NS(=O)(=O)c3cccs3)cccc2C(=O)N([C@H](C)CO)C[C@@H]1C,-13%,i
CCOc1ccc(CCNC(=O)c2sc3ncccc3c2-n2c(C)ccc2C)cc1,-10%,-21%
CCOC(=O)CC(=O)NC(C)(C)CCCCC(C)(C)NC(=O)CC(=O)OCC,-8%,i
Cc1cc(OCC(=O)NCC(O)c2ccccc2)c2c(C)cc(=O)oc2c1 (centres undefined),4%,8%
COc1ccc(/C=N/c2nc3ccccc3n2CCN2CCCCC2)cc1OC,-5%,-10%

# Single records, as listed above. Order of values: VACV Venus inh, Vaccinia mCherry
# `Cc1cc(OCC(=O)NCC(O)c2ccccc2)c2c(C)cc(=O)oc2c1` (centres undefined) in the list: 4%, 8%
# `CCc1nc2c(OCc3ccc(OC)cc3)cccn2c1N(C)C(=O)c1ccc(OC)cc1` in the list: -11%, 22%
# `CCOC(=O)CC(=O)NC(C)(C)CCCCC(C)(C)NC(=O)CC(=O)OCC` in the list: -8%, i
# `CC(CCc1ccccc1)NC(=O)CNC(=S)N(Cc1cccs1)C1CCCC1` (centres undefined) in the list: -21%, -26%
# `Cn1c(=O)oc2cc(S(=O)(=O)N3CCC(C(=O)NCc4ccc(F)cc4)CC3)ccc21` in the list: 1%&-13%, 0%&-18%

# Some of the entries above in a different format:
Structure	VACV Venus inh	Vaccinia mCherry
CC(CCc1ccccc1)NC(=O)CNC(=S)N(Cc1cccs1)C1CCCC1 (centres undefined)	-21%	-26%
CCc1nc2c(OCc3ccc(OC)cc3)cccn2c1N(C)C(=O)c1ccc(OC)cc1	-11%	22%
Cn1c(=O)oc2cc(S(=O)(=O)N3CCC(C(=O)NCc4ccc(F)cc4)CC3)ccc21	1%&-13%	0%&-18%
C=CCNC(=S)NNC(=O)COc1ccc(Br)cc1	-11%	-19%
